# CSC inhib: blocks cancer stem cells; cancer stem cell-like cells viability, luminescence; inhibition, % at 7.5 µM; hit rate 1.1% among 300,000; AID 2717;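 active = mean at 75% or more and at least half the replicates too; inconclusive = mean and replicates disagree; tested in HMLE shEcad cells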;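 also: 0% = median of negative and 100% = median of positive control wells; the first replicate is given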
# HIV Env fusion: HIV envelope-mediated fusion inhibition; HeLa-JRFL Env/CEM21 cell fusion, luciferase; inhibition, % at 12.3 µM; hit rate 1.1% among 360,000; AID 651610;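 active = mean replicate inhibition score of at least 50 and every replicate individually at or above 50; inconclusive = only one of the two criteria met; inactive = mean below 50 and not all replicates reaching 50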;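 also: 0% = plate neutral controls and 100% = maraviroc near 300 nM; one replicate is shown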
# PABP polyA inh: blocks human PABP binding to poly(A) RNA; AID 2014; fluorescence polarization; inhibition, % at 35 µM; P11940; hit rate 1% among 290,000;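 active = 50% or more with normal probe brightness, or confirmed in later tests; inconclusive = above 50% with abnormal brightness, or retests that disagree; inactive = below 50% or failed in later tests; about a fifth of its hits are not listed in these tables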;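 also: calls also rest on retests at 20 µM and on dose response follow-up; controls were probe without protein and protein plus probe with vehicle; some compounds called inactive have numbers as strong as hits; many hits fall short of the cut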
# eIF4H inh: inhibitors of RNA binding by human eIF4H; Q15056; eIF4H fluorescence polarization binding assay; inhibition, % at 35 µM; hit rate 0.94% among 290,000;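 active = 50% or more with normal probe brightness, or confirmed in later tests; inconclusive = above 50% with abnormal brightness, or retests that disagree; inactive = below 50% or failed in later tests; about a fifth of its hits are not listed in these tables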;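 also: calls also rest on retests at 20 µM and on dose response follow-up; 0% = protein and probe with vehicle and 100% = probe without protein; strong numbers were not always called active; many hits fall short of the cut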
# Yeast UUG start: yeast start codon fidelity modulation; hit rate 0.13% among 350,000; AID 602363; S. cerevisiae UUG-firefly luciferase reporter, luminescence/redox ratio; activity score, % at 18.7 µM;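 active = replicate mean at a twofold rise or more, about +100% in these data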;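 also: firefly luciferase made from a UUG start codon reports start codon fidelity; reporter light over untreated wells divided by growth signal over untreated wells; some hits fall short of that in this replicate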
# MT1-MMP act inh: blocks activation of human MT1-MMP. HT1080 RFP-PRO-GFP cells, GFP/RFP ratio fluorescence, overnight; percent of plate control window, DMSO zero. GFP/RFP ratio change, % at 20 µM. hit rate 0.061% among 360,000. AID 651647;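 active = GFP/RFP ratio change of at least 30% with cell ATP level not reduced by more than half and red fluorescence within 50% of control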; also: strong numbers were not always called active
#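 Material: RFP-PRO-GFP reporter HT1080 cells. Dosing: single-point 20 µM compound, 1% DMSO. Controls: DMSO and RFP-L50D-GFP cell wells. Timing: cells overnight before dosing, compound overnight, 37 °C, 5% CO2. Measure: GFP/RFP fluorescence ratio.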
# Rce1 inh: inhibitors of yeast Ras-converting enzyme | calls only | yeast membranes, quenched prenylated peptide cleavage fluorescence | Q03530 | hit rate 0.27% among 290,000;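 active = fall in fluorescence gain of 50% or more versus controls, with final raw signal at or below 3038400; inconclusive = same 50% fall but final raw signal above 3038400; inactive = fall in fluorescence gain under 50%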;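 also: plate controls were neutral control wells for no effect and wells lacking membranes for full effect; tested at 10 µM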
# Target sequence (Q03530 whole entry, looked up): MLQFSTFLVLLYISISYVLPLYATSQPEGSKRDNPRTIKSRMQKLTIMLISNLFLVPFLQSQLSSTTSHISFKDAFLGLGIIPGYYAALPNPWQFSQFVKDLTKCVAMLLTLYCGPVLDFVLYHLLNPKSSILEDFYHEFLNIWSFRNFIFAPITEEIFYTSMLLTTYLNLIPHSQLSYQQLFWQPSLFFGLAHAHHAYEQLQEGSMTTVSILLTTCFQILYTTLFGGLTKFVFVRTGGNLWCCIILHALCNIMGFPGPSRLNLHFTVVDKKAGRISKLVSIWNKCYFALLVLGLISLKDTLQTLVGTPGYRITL
# MT1-MMP act inh RFP: second read-out of MT1-MMP act inh, no call of its own (marks repeat the call); RFP signal change, %; measured here: RFP expression control read;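 0 = vehicle wells; hits needed this value within 50% of zero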
# * hit, by the source's call; i = inactive; ? = inconclusive; · = no result given.
# Start of the data: the first 2 entries, ahead of the listing:
mol	CSC inhib	HIV Env fusion	PABP polyA inh	eIF4H inh	Yeast UUG start	MT1-MMP act inh	MT1-MMP act inh RFP	Rce1 inh
S=c1[nH]nc(-c2ccco2)n1/N=C/c1ccc(Cl)cc1Cl	-3	-31	-7	0	-9	6	6	i
N[C@@H]1CONC1=O	-8	·	-6	-11	·	·	·	i

# The listing (from the top)
mol	CSC inhib	HIV Env fusion	PABP polyA inh	eIF4H inh	Yeast UUG start	MT1-MMP act inh	MT1-MMP act inh RFP	Rce1 inh
S=c1[nH]nc(-c2ccco2)n1/N=C/c1ccc(Cl)cc1Cl	-3	-31	-7	0	-9	6	6	i
N[C@@H]1CONC1=O	-8	·	-6	-11	·	·	·	i
O=C(NCc1ccccn1)c1cn(CCc2ccccc2)nn1	11	·	-7	-2	-11	-1	2	·
CCCN1Cc2cccc(C(N)=O)c2C1=O	-7	·	-7	-5	-4	-2	-6	i
COc1ccccc1C(=O)NNC(=O)c1cccc(Cl)c1	-6	-13	3	6	·	3	3	i
CSc1nc2sc3c(c2c(=O)[nH]1)CCc1ccccc1-3	-5	-34	3	-1	·	-1	6	i
O=C(/C=C/c1cn(CC(O)CN2CCCCC2)c2ccccc12)c1ccccc1 (configuration not stated)	·	0	-6	-14	·	-3	0	i
CN1C(=O)CSC1=NC12CC3CC(CC(C3)C1)C2	4	2	-4	-2	-12	-2	-3	i
Cn1c(SC/C=C/c2ccccc2)nnc1-c1cnccn1	·	·	5	4	-14	-1	-1	i
NC(=O)C1CCN(c2nc(-c3ccccc3)nc3c2oc2ccccc23)CC1	·	·	2	-4	-10	-2	0	·
Cc1ccc(CNC2CCCCC2)s1	4	1	-9	-5	-8	3	0	i
Cc1cc(C)nc(SCCC(=O)Nc2ccc(F)cc2)n1	-10	-4	-12	-1	-23	2	2	i
CCN1C[C@@H]2[C@@H]3C(=O)N(C)C(=O)[C@@H]3[C@](Cc3ccccc3)(C(=O)OC)N2C1=NC1CCCCC1	·	-5	·	·	11	1	1	·
Cn1c(N)c(C(=O)COC(=O)c2cc(S(=O)(=O)NCc3ccccc3)ccc2O)c(=O)n(C)c1=O	·	-31	·	·	6	-3	3	·
O=C(O)c1ccc(OCC(O)Cn2c3ccccc3c3ccccc32)cc1 (configuration not stated)	1	-7	2	5	-7	-6	-3	i
O=C(CCn1c(=O)c2sccc2n(Cc2cc(=O)n3ccccc3n2)c1=O)NCc1ccco1	·	4	-7	-7	-17	-1	-1	i
Cn1cc([N+](=O)[O-])c(C(=O)N/N=C/c2ccccc2)n1	-12	·	0	5	-17	1	8	i
CCCOc1ccc(C(=O)NCC(C)(C)N2CCOCC2)cc1	3	6	-14	-2	-11	2	5	i
Cc1cc(C)c(C)c(OCCN2CCOCC2)c1	-7	-19	-1	-12	-16	1	1	i
O=C(NCCc1ccccc1)[C@@H]1CC=C[C@@H]2CCN(Cc3ccc(Cl)c(Cl)c3)C(=O)[C@@H]21	21	-8	·	·	3	1	-11	i
C=CCNC(=S)NCC1COc2ccccc2O1 (configuration not stated)	·	-23	-10	-5	·	10	2	i
COC(CNc1ccc([N+](=O)[O-])c(NCC(OC)OC)c1C#N)OC	-23	11	-2	-13	-9	-3	0	i
O=C(CSc1ncccn1)N1CCC(Cc2ccccc2)CC1	24	24	-14	-11	·	-1	-6	i
CC1=C(C(=O)OCc2ccc3c(c2)OCO3)C(c2ccccc2)NC(=O)N1 (configuration not stated)	42	107*	-4	-6	3	-27	-22	i
CC(=O)Nc1ccc(NC(=O)CSc2nc3ccccc3c(=O)n2CCCN2CCOCC2)cc1	-9	15	·	·	-15	16	3	·
COC(=O)c1c(NC(=O)CN2CCN(c3ccccc3OC)CC2)c2c(C)cccc2n1C	·	-36	-6	3	·	·	·	·
COc1cc(S(=O)(=O)N2CCOCC2)cc(C(=O)OCC(=O)NC2CCCCC2)c1OC	-6	·	·	·	0	2	3	·
CCC(C)[C@H](NC(=O)N1CCCC1)C(=O)O (some centres not stated)	-18	·	10	-9	·	5	1	i
CNc1c(NS(=O)(=O)c2ccc(OC)c(Cl)c2)c(=O)oc2ccccc12	-7	6	-5	-4	-14	0	0	i
C=CCn1c(=O)c(C(=O)NCCNCC)c(O)c2ccccc21	-2	·	11	-7	-5	3	-4	i
COc1ccc(CCNC(=S)Nc2cccc(C)c2)cc1	-5	·	-7	-8	-18	-3	-7	i
CCOC(=O)N1CCC(N2Cc3cccc(C(=O)Nc4ccc(OC)c(OC)c4)c3C2=O)CC1	0	-63	5	-13	-14	9	-2	i
O=C(O)c1cc(S(=O)(=O)NC(Cc2c[nH]c3ccccc23)C(=O)O)ccc1Cl (configuration not stated)	-7	-2	1	-4	-11	-1	8	i
COc1cccc(C(=O)NN2CCOCC2)c1	3	15	·	·	·	-3	-3	i
CC(=O)Nc1ccc2c(CSc3nnc(-c4cccnc4)n3-c3ccc(C)cc3C)cc(=O)oc2c1	-4	0	5	9	·	-4	0	i
CCC(=O)N1c2ccccc2[C@@H](N(C(C)=O)c2ccccc2)C[C@H]1C	-6	-115	-2	0	·	11	3	i
CCOC(=O)[C@@H](C)N(C(=O)OC(C)(C)C)S(=O)(=O)N(Cc1ccccc1)[C@H](C(=O)OC)C(C)C	·	85*	·	·	-2	-2	-11	·
CCCCOc1ccc(-c2ncc([N+](=O)[O-])cn2)cc1	-4	3	14	4	·	3	1	i
COCCNc1c(-c2ccc(O)cc2)nc2ccc(Cl)cn12	8	·	-2	13	-17	4	-3	i
COc1ccc(N2CCN(C(=O)Cn3c(=O)[nH]c4ccccc4c3=O)CC2)cc1	-7	?	3	-8	·	·	·	i
COc1cc(OC)cc(C(=O)NCCSCc2ccc(Cl)cc2)c1	4	-9	-4	-4	-24	3	-4	i
O=C(Nc1cccc(-n2cnnn2)c1)c1cccc(Cl)c1	2	13	7	-16	-6	3	0	i
COc1cc2c(cc1OC)CN(C(=O)CCCN1C(=O)c3ccccc3C1=O)CC2	-2	-6	-3	-3	-5	3	2	i
CC(=O)Nc1ccc(Nc2ccc3nonc3c2[N+](=O)[O-])cc1	-6	23	6	-3	-8	8	1	i
COc1ccccc1-n1nnnc1SCC(=O)Nc1ccccn1	-5	-111	3	-2	-8	-1	2	i
COc1ccc(CNC(=O)COC(=O)c2c(NC(C)=O)sc(C)c2C)cc1OC	·	31	·	·	-14	-3	-4	·
Cc1ccc(NC(=O)CSc2ccc(-c3ccccn3)nn2)cc1	0	-26	-10	-11	·	7	0	i
C=CCN1C(c2ccccc2)=CS/C1=C(\C#N)c1nnc2n1CCCCC2	-13	·	5	-1	-7	9	-2	i
CC1CCc2c(sc(NC(=O)c3cccn3C)c2C(N)=O)C1 (configuration not stated)	-6	-26	·	·	-12	-5	-2	·
COc1ccc(CN2C(=O)c3cccnc3C2=O)cc1S(=O)(=O)NCc1ccccc1	-15	-5	3	-1	-1	-8	-4	i

# Next records
mol	CSC inhib	HIV Env fusion	PABP polyA inh	eIF4H inh	Yeast UUG start	MT1-MMP act inh	MT1-MMP act inh RFP	Rce1 inh
CCCC[n+]1ccn(-c2nc3ccccc3nc2[N-]S(=O)(=O)c2ccc(C)cc2)c1	4	·	21	19	-4	-1	-2	i
CCOC(=O)/C(C#N)=C/c1ccc(OC(=O)c2ccco2)c(OCC)c1	-5	·	-2	-2	-2	-1	1	i
Cc1ccccc1NC(=O)c1cc(N)ccc1N1CCCCC1	-17	-24	-11	-6	-9	-2	4	i
Cn1c(=O)cc(SCC(=O)N2CCCC2)c2cc(Cl)ccc21	-10	12	-5	-6	-1	4	7	i
CC(C)C(NC(=O)OCc1ccccc1)C(=O)OCC(=O)N1C(C)CCCC1C (configuration not stated)	·	·	-4	4	-10	-1	-2	i
Cn1c(=O)c(C(=O)NC2CCCCCC2)c(O)c2ccccc21	2	-2	-5	8	5	2	5	i
Cc1ccc([N+](=O)[O-])cc1N=C(c1ccc([N+](=O)[O-])cc1)N1CCOCC1	1	·	3	-4	·	-3	2	i
CC(C)(C)c1ccc(C(=O)NCC(=O)N2CCNC(=O)C2)cc1	-8	3	-4	-5	-13	-4	1	i
CCN(CC)C(=O)Cn1cc(C(=O)C(=O)N(CC)C2CCCCC2)c2ccccc21	3	4	-9	-3	-16	-7	2	i
COc1cc(CN2CCNC(=O)C2CC(=O)NCCCN2CCOCC2)cc(OC)c1 (configuration not stated)	0	-3	-6	15	17	5	3	i
CCCc1nc2ccccc2n1C(=S)SC	8	-8	1	2	·	0	-3	i
COc1ccc(CCNC(=O)C2CC(=O)N(C3CCCC3)C2)cc1OC (configuration not stated)	9	·	4	3	-5	-2	3	i
CC(=O)Nc1ccc(-n2c(C)nc(=O)c(-c3ccccc3)c2C)cc1	16	·	4	1	-61	-6	-5	i
Cc1ccc(CNS(=O)(=O)c2ccc(C(F)(F)F)cc2)n1C	-11	17	-9	2	-6	-3	3	i
O=C(NCc1ccccc1)c1ccc(NC(=O)C2CC2)cc1	·	-14	·	·	-17	11	5	·
COc1ccc(NC(=O)COC(=O)Cc2ccccc2[N+](=O)[O-])cc1OC	-8	-15	8	-4	·	1	7	i
CCOc1cccc(C(=O)N(Cc2cccc(F)c2)C2CCS(=O)(=O)C2)c1 (configuration not stated)	·	3	48	0	-6	-1	3	i
CCN(CC)CCCNC(=O)c1cc(-c2ccccc2)c(N2CCCCC2)s1	83*	30	-10	-10	4	5	4	i
CC1CCC(C(C)C)C(OC(=O)COC(=O)c2cccn2C)C1 (configuration not stated)	-16	·	-2	-3	-10	-8	-5	i
CCn1c(CNC(=O)c2cccs2)n[nH]c1=S	-13	·	-8	-5	-14	-1	6	i
CCOC(=O)N1CCN(C(=O)COc2ccc(S(=O)(=O)NC(C)C)cc2)CC1	6	6	2	1	-10	-2	-2	i
Cc1nc(C2CC(=O)OC23CCCCC3)cs1 (configuration not stated)	-1	·	0	2	-21	-1	-1	i
Cc1cccc(C(=O)NCC(=O)N(C)CC(=O)Nc2ccc(N3CCOCC3)cc2)c1	-4	11	-3	-8	-9	2	3	i
CCOc1ccc(CCNC(=O)CN2C(=O)NC3(CCCC3)C2=O)cc1OCC	5	-5	23	-12	24	-2	3	i
CCC(C)N(C)C1CCN(C(=S)Nc2ccc(OC)cc2)CC1 (configuration not stated)	-10	7	3	7	-9	2	3	i
COc1cccc(CNS(=O)(=O)c2ccc3c(c2)CC(C)N3C(=O)C2CCC2)c1 (configuration not stated)	-1	-4	4	7	-4	0	-21	i
C=CCOC(=O)COc1ccc2c3c(c(=O)oc2c1)CCCC3	·	19	·	·	-15	1	2	·
O=C(CCN1CCCCO1)NC1CCCc2c1cnn2-c1ccc(F)cc1F (configuration not stated)	·	-8	·	·	-10	3	-8	·
FC(F)(F)c1cc(-c2ccc(Cl)cc2)nc2ncnn12	-10	-56	5	-2	-20	-3	2	i
CCOC(=O)CC(=O)CSc1nc(N)c(C#N)c(-c2ccc(Cl)cc2)c1C#N	·	·	111*	114*	-6	6	0	i
O=[N+]([O-])c1ccc(Oc2cnc3ccccc3n2)cc1	-12	19	11	12	·	-10	-4	i

# Compound activity: PubChem BioAssay, several laboratories

# Only part of the results is shown (hit frequency here may not be typical).
